E coli growth – E. coli growth inhibition, primary screen, OD600; Escherichia coli growth, 23 h; stronger effect = lower value; OD600 absorbance (test concentration not listed); 0.21% of 330,000 active; AID 1053175, 2014;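 active = OD600 absorbance below the run mean of sample wells minus 3.6 SD, in any replicate, cut at about 0.56 in these data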;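 also: stock transfer was 300 nL into about 60 µL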
Vif A3G – inhibitors of Vif binding to APOBEC3G peptide, primary screen, biochemical, TR-FRET, GST-Vif 1-94, biotin-A3G peptide, dose response retest (AID 1117319); TR-FRET GST-Vif / biotin-A3G peptide binding; higher % means a stronger effect; test concentration not given here; strong numbers were not always called active; 0.57% of 260,000 active; inhibition, %; hits with a dose series show IC50 in µM;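 active = above the screen mean plus three standard deviations and confirmed in dose response; inconclusive = results disagree or hit not tested in dose response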;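 also: Vif residues 1-94 fused to GST binding biotinylated APOBEC3G peptide 110-148; 0% = full assay without inhibitor and 100% = GST in place of GST-Vif; retest series ran down from 100 µM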
HNF4A DNA FP – change in binding of human HNF4A to DNA, primary screen, biochemical, fluorescence polarization, FITC-DNA. 1 h. 0.3% of 360,000 active. AID 1224865, 2016. Hepatocyte nuclear factor 4-alpha (Homo sapiens), P41235. activity change, % at 10 µM; in the data active = activity change above about 30%, passing the limit was not always enough;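 also: controls were the assay level and a saturating level of protein; the project sought stronger binding though the title names inhibitors; some compounds called inactive have numbers as strong as hits; positive values seem to mean higher polarization but the record does not say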
Target sequence (P41235 whole entry, looked up): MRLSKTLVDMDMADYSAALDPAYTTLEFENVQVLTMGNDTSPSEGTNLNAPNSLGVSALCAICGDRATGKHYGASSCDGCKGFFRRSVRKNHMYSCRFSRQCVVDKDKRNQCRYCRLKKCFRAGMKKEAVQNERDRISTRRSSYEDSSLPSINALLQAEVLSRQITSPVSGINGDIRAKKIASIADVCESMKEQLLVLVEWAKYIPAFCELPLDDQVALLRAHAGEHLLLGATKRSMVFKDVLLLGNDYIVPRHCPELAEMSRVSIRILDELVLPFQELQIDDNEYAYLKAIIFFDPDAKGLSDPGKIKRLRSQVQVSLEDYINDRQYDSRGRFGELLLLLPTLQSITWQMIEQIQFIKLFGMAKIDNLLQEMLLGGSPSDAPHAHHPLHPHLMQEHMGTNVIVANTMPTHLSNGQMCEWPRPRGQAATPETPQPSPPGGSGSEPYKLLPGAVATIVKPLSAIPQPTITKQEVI
Bfl-1 A1 inh – caspase 3/7 activation in MEF A1-2A-BIM cells, primary screen, A1 inhibitor project, cell-based, luminescence, HTS; Caspase-Glo 3/7 luminescence, 3 h; percent of clofoctol response, vehicle zero; caspase activation, % (no concentration beside the values); 0.066% of 330,000 active; AID 2462, 2010;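 active = over half of replicate activation scores above 10%, or exactly half above 10 with the replicate mean above 10; inconclusive = replicate mean below 10 yet half the replicates above 10; inactive = over half of replicates below 10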;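 also: wells of about 30 µL received 50 nL stock; many hits fall short of the cut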
LANA-H2A inh – blockers of LANA interaction with H2A/H2B – biochemical, FP readout, HTS, primary screen. Protein LANA1 (Human herpesvirus 8 type P (isolate GK18)), Q9QR71. 0.6% of 320,000 active. inhibition, % (no concentration beside the values). cell-free LANA-H2A/H2B peptide, fluorescence polarization; in the data active = inhibition mostly above about 10%, no sharp cut-off; inactive = mostly below about 6.7%;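 also: stock transfer was 7.5 nL into about 10 µL; 0% = median of vehicle wells and 100% = median of positive control wells; one replicate is shown; the record names a cut of 25% in any replicate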
B2AR ag – beta2AR agonists driving receptor internalization, primary screen, cell-based, FAP fluorogen, flow cytometry | Beta-2 adrenergic receptor (Homo sapiens), P07550 | Am2.2-beta2AR cells; reference of the scale not given here | response, % (no concentration beside the values) | 0.43% of 340,000 active | AID 504454, 2011;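 active = response above a set limit, near 3 SD of response in nonfluorescent compounds, cut at about 42% in these data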;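 also: stock transfer was 100 nL into about 11 µL; a reference agonist was the positive control; negative values mostly stem from fluorescent compounds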
UCH37 DUB inh – inhibitors of human UCH37 deubiquitinase, primary screen, biochemical, Ub-AMC cleavage, fluorescence. Ubiquitin carboxyl-terminal hydrolase isozyme L5 (Homo sapiens), Q9Y5K5. purified proteasome/UCH37. 0.33% of 330,000 active. inhibition, % (concentration not given with the values);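 active = mean of two replicates above 20%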;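 also: 0% = compound-free wells with enzyme and 100% = wells lacking proteasome; stock transfer was 100 nL into about 20 µL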
Target sequence (Q9Y5K5 whole entry, looked up): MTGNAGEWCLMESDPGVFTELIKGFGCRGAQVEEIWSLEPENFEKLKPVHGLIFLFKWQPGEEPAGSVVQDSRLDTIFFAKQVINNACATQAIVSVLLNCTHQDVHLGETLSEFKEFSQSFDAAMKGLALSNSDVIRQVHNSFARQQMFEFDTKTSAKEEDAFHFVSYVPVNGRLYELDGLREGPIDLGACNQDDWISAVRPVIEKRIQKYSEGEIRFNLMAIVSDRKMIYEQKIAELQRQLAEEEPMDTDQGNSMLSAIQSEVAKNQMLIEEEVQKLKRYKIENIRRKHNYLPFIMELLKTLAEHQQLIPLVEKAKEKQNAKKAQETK
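System: Proteasome-associated human UCH37 deubiquitinase; Input: 0.15 nM proteasome in added enzyme buffer; Also added: Ub-AMC substrate from 1 µM stock; Incubation: 30 min compound-proteasome preincubation then 25 min substrate reaction, room temperature; Detection: fluorescence, ex 355 nm, em 460 nm; Read-out: % inhibition of Ub-AMC cleavage fluorescence; Benchmarks: no-proteasome and no-compound wells.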
The depositor's hits bear a star; ? = inconclusive; nt = not tested or not shown.

SMILES	E coli growth	Vif A3G	HNF4A DNA FP	Bfl-1 A1 inh	LANA-H2A inh	B2AR ag	UCH37 DUB inh
CCNC(=S)N(Cc1ccc(OC)cc1)C1CC(=O)N(c2ccc(OCC)cc2)C1=O (stereo unspecified)	0.76	3%	-1.2	0.3	-2.2	1	6.7
CCCNC(=O)c1ccc(SCC(=O)N(CC)CC)c([N+](=O)[O-])c1	0.72	-4%	-1.3	-0.4	2.4	-11	5.8
C=CCn1c(-c2csc(-c3ccc(Cl)cc3)n2)n[nH]c1=S	0.69	-10%	-0.1	0.3	-4.9	-4	2.6
CN(Cc1ccc(C(F)(F)F)cc1)C(=O)C1CC(=O)N(Cc2ccco2)C1 (stereo unspecified)	0.63	nt	-2.2	1.6	-0.8	-9	1.7
CC(=O)NCCc1ccc(-c2csc(NC(=O)C3CC(=O)N(C4CCCC4)C3)n2)cc1 (stereo unspecified)	0.67	2%	1.2	nt	nt	-6	0.2
CCc1ccc2oc(=O)cc(CN(C)Cc3ccccc3)c2c1	0.69	?	0.4	0.5	-0.5	13	3.9
COc1cc(C2C(C(=O)OC(C)C)=C(C)Nc3ncnn32)cc(OC)c1OC (stereo unspecified)	0.74	-3%	-2.7	0.4	1.4	-5	3.5
Cc1nn(C)cc1C(C(=O)NC1CCCCC1)N(C(=O)Cc1cccs1)c1ccc(F)cc1 (stereo unspecified)	0.68	2%	-0.5	0.2	-0.6	5	-3.5
CCOC(=O)c1ncn2c1C(=O)OC2(C)C	0.66	16%	3.1	0.1	1.2	1	-0.7
O=C(OC(C(=O)NCC1CCCO1)c1ccc(F)cc1)c1ccco1 (stereo unspecified)	0.69	19%	0.5	-0.1	3.2	4	-1.0
CCOc1ccc(C(=O)NCC(=O)NNC(=O)CN(C)S(=O)(=O)c2ccc(Cl)cc2)cc1OCC	0.72	nt	2.3	nt	nt	-9	-2.4
CCOC(=O)C1=C(C)N(C)C(=O)NC1c1c(C)nn(-c2ccccc2)c1C (stereo unspecified)	0.7	25%	2.6	-0.8	3.2	-15	2.1
COc1cc(OC)cc(C(=O)N[C@H](C(=O)NCCc2c[nH]c3ccccc23)C(C)C)c1	0.73	-5%	2.0	-0.8	-0.8	3	2.2
COc1ccc(NC(=O)c2cc(CN3C(=O)c4ccccc4C3=O)ccc2OC)cn1	0.68	18%	-0.7	-2.2	6.6	-8	9.7
CCOc1ccc(N=C(/C(C(=O)C(=O)N2CCOCC2)=C(/O)c2ccccc2)c2ccccc2)cc1	0.66	21%	-3.7	-1.6	1.0	-3	5.9
CC1(C)CCN(Cc2ccccc2)C1CC#N (stereo unspecified)	0.65	>100µM*	-0.3	-0.6	1.7	9	-1.5
CCC(=O)Oc1ccc(C/C(=N\O)c2ccc(O)cc2O)o1	nt	?	5.6	0.3	-1.2	17	nt
O=C(O)CCC(C(=O)O)n1c(O)c(C2=c3ccccc3=NC2=O)sc1=S (stereo unspecified)	0.7	?	-2.0	0.0	-1.1	2	1.1
COc1ccc(N=Cc2cc3c(cc2O)OC(N)=C(C#N)C3c2ccccc2)cc1 (stereo unspecified)	0.69	nt	66*	1.0	-2.8	1	0.2
CCc1nnc(NC(=O)c2cccc(C(=O)Nc3nnc(CC)s3)n2)s1	0.69	nt	2.2	-0.4	-0.9	-13	5.6
Fc1ccccc1/C=N/n1c(COc2ccccc2)n[nH]c1=S	nt	0%	0.2	0.5	-5.3	8	nt
CCc1c(C)nc2nc(SCc3ccccc3Cl)[nH]n2c1=O	0.68	2%	1.6	-0.6	-3.2	10	3.8
Cc1nnc(SCc2ccccn2)n(N)c1=O	0.7	6%	1.0	-0.2	0.6	4	-3.3
C1CCCCCC(=NNc2nn[nH]n2)CCCCC1	0.59	3%	3.5	-0.1	8.4	7	2.3
O=C(N=C1SC2CS(=O)(=O)CC2N1c1cccc(F)c1)C1CC1 (stereo unspecified)	0.72	nt	1.8	0.2	10	9	1.0
N#Cc1cc(-c2ccccc2)nnc1Sc1ccc(Cl)cc1	0.75	0%	0.5	0.6	nt	0	2.6
O=C(O)CCc1nc(-c2cccs2)no1	0.75	-2%	0.6	0.6	-2.4	3	2.0
Cc1c(C(=O)OCC(=O)NCc2ccc3c(c2)OCO3)cccc1[N+](=O)[O-]	0.75	18%	1.4	-0.1	3.8	-1	-1.1
CC1(CO)COC(c2ccccc2)=N1 (stereo unspecified)	0.71	-1%	1.9	0.9	5.4	-4	4.6
COc1ccc2c(c1)[nH]c1c(=O)n(CC3CCCO3)cnc12 (stereo unspecified)	0.7	5%	2.9	-0.4	-2.0	15	1.7
O=C(NC1CCCC1)C1c2ccccc2C(=O)N1CCCN1CCOCC1 (stereo unspecified)	0.73	-7%	-0.8	0.9	-0.6	6	3.5
O=[N+]([O-])c1ccc(CN2C=NS(=O)(=O)c3ccccc32)cc1	0.68	nt	-1.7	0.0	4.4	1	-0.7
CC(C)c1ccc(C(=O)OCC(=O)c2c(N)n(C)c(=O)n(C)c2=O)cc1	0.64	2%	-4.5	-1.2	-3.3	25	1.2
COc1ccc(S(=O)(=O)N(CC(=O)N/N=C/c2ccc(C(=O)O)cc2)Cc2ccccc2)cc1OC	nt	nt	-1.0	-0.4	1.0	2	nt
COc1ccc(NC(=O)C2CCCN(C(=O)c3ccc(Cl)cc3)C2)cc1Cl (stereo unspecified)	0.71	nt	3.5	0.2	0.8	-8	5.2
C=CCNC(=O)c1ccc(NC(=O)C2=CSCCO2)cc1	0.65	nt	2.4	1.8	-8.3	-11	0.9
Cc1c(Cl)cnc(NC(=O)CSc2nncs2)c1Cl	0.7	-1%	2.4	-0.9	-2.6	15	3.8
Cc1ccc(-n2c(SCc3nnc4n3CCC4)nnc2-c2ccccc2)cc1	0.73	30%	0.6	-0.2	-5.3	8	-1.1
COC(=O)c1ccccc1NS(=O)(=O)c1ccc2c(c1)oc(=O)n2C	0.7	2%	-0.5	-1.2	-0.3	1	3.6
CC(C)(C)c1ccc(C(=O)Nc2nnc(C3=COCCO3)o2)cc1	0.69	nt	-2.3	-0.6	-6.2	9	1.2
Nc1c(C(=O)N/N=C/c2cccnc2)oc2nc(-c3ccco3)cc(-c3ccco3)c12	nt	?	-44	-0.6	3.0	30	nt
CC1(C)CC(=O)C(C(c2ccc(F)cc2)C2C(=O)CC(C)(C)CC2=O)C(=O)C1	0.68	6%	-2.8	0.2	-3.0	8	3.0
CCCCNc1oc(-c2ccc(OC)cc2)nc1S(=O)(=O)c1ccccc1	0.72	0%	-2.0	1.7	-0.8	-5	2.2
O=C(c1ccco1)N1CCN(C(=O)c2ccccc2OCc2ccc(Cl)cc2)CC1	0.64	nt	0.6	-0.3	2.6	-11	0.0
O=S(=O)(Nc1nnc(C2CC2)s1)c1ccccc1	0.66	0%	2.5	1.0	6.2	-1	2.1
CCN(CC(=O)Nc1c(F)cccc1F)C(=O)/C=C/c1ccc(Br)s1	0.68	1%	2.7	0.2	1.1	-6	5.2
CN1CCN(NC(=O)CN(C)S(=O)(=O)c2cc(Cl)ccc2Cl)CC1	0.69	nt	-1.4	0.3	-3.3	-5	3.9
O=C(CNC(=O)c1ccco1)OCC(=O)c1ccc([N+](=O)[O-])cc1	0.64	nt	-2.6	1.6	-2.8	4	1.2
Cc1ccc(C(=O)Cn2c3[n+](c4ccccc42)CC(O)CS3)cc1 (stereo unspecified)	0.71	nt	-0.6	0.1	-3.0	-10	3.3
Cc1cccc(N2CCN(C(=O)c3cc(S(=O)(=O)N4CCOCC4)cn3C)CC2)c1C	0.67	nt	3.4	0.5	6.0	5	4.0
O=S(=O)(NC1CCN(Cc2ccccc2)CC1)c1cccc2cccnc12	0.63	8%	-1.9	0.6	5.2	3	1.7
C/C(=N\NC(=O)c1cc(C)nc2ccccc12)c1cccs1	nt	9%	-2.4	0.8	1.5	-3	nt
CCOc1ccc(NC(=O)CN(C)C(=O)Cc2n[nH]c(=O)c3ccccc23)cc1OCC	0.67	nt	7.3	-0.5	-399	-5	-1.7
O=[N+]([O-])c1cnn2cc(Br)cnc12	0.68	-7%	0.5	0.3	3.1	-1	7.9
CC(C)c1ccc(CN2CCC(Oc3ccc(C(=O)N4CCCC4)cc3)CC2)cc1	0.69	-2%	1.4	-1.4	-3.6	4	0.1
O=C(NCC(c1ccco1)N1CCCC1)c1cc2cc(Cl)ccc2o1 (stereo unspecified)	0.67	-4%	3.1	0.9	0.0	10	2.3
CC1C/C(=N\NC(=S)NC(C)C)CC(C)(C)C1 (stereo unspecified)	nt	-1%	3.1	-0.2	-1.3	-4	nt
Nc1c2nc(-c3ccccc3Cl)[nH]c(=O)c2nc(=O)n1-c1ccccc1	0.68	-7%	-2.1	-0.2	1.2	14	-42
CCN(CC(=O)NCc1ccco1)S(=O)(=O)c1ccc(F)cc1	0.69	nt	-1.8	-0.3	4.5	0	1.2
COCCOC(=O)C1=C(C)OC(N)=C(C#N)C1c1cc2cccc(C)c2nc1Cl (stereo unspecified)	0.69	0%	0.7	0.2	1.0	-2	-5.0

Profiles, quoted from the list. Order of screens: E coli growth, Vif A3G, HNF4A DNA FP, Bfl-1 A1 inh, LANA-H2A inh, B2AR ag, UCH37 DUB inh
`Cc1cccc(N2CCN(C(=O)c3cc(S(=O)(=O)N4CCOCC4)cn3C)CC2)c1C` in the list: 0.67, nt, 3.4, 0.5, 6.0, 5, 4.0
`CCN(CC(=O)NCc1ccco1)S(=O)(=O)c1ccc(F)cc1` in the list: 0.69, nt, -1.8, -0.3, 4.5, 0, 1.2
`CCOc1ccc(NC(=O)CN(C)C(=O)Cc2n[nH]c(=O)c3ccccc23)cc1OCC` in the list: 0.67, nt, 7.3, -0.5, -399, -5, -1.7
`Nc1c2nc(-c3ccccc3Cl)[nH]c(=O)c2nc(=O)n1-c1ccccc1` in the list: 0.68, -7%, -2.1, -0.2, 1.2, 14, -42

Further records.
SMILES	E coli growth	Vif A3G	HNF4A DNA FP	Bfl-1 A1 inh	LANA-H2A inh	B2AR ag	UCH37 DUB inh
CC(C)NC(=O)CC(=O)N/N=C/c1ccc(Br)cc1	nt	8%	3.4	-0.2	3.3	7	nt
Cc1[nH]c2ccc(C(=O)N3CCN(c4ccccc4Cl)CC3)cc2c1C	0.65	4%	-4.5	-0.3	-0.8	0	1.1
CSc1sc(-c2ccnc(SCC(=O)C(C)(C)C)n2)c2c1C(=O)CC(C)(C)C2	0.67	20%	14	-0.2	1.5	3	-29
O=C(C1CCN(C2CC(=O)N(c3cccc(Cl)c3)C2=O)CC1)N1CCCC1 (stereo unspecified)	nt	-1%	1.3	1.2	-3.2	-5	nt
C/C(=N\NC(=O)c1cccc([N+](=O)[O-])c1)c1ccncc1	nt	-6%	1.3	0.2	0.6	-2	nt
COc1ccc(-n2c3c(cc(C(=O)Nc4cccc(C)n4)c2=O)C(=O)CC(C)(C)C3)cc1	0.74	4%	1.4	1.7	-4.4	-4	-28
Cc1ccc(N(Cc2cc3ccccc3[nH]c2=O)S(C)(=O)=O)cc1	0.73	-27%	6.7	0.1	-3.5	-9	3.1
Cc1ccc(Cc2cnc(NC(=O)CN3CCOCC3)s2)cc1Cl	0.67	?	3.7	0.6	-1.5	-2	0.9
Cc1nn(CC(C)C)c2sc(C(=O)NC3CC(C)(C)NC(C)(C)C3)cc12	nt	0%	-4.7	0.2	-4.9	-8	nt
COc1cc(S(=O)(=O)Nc2ncn[nH]2)ccc1Cl	0.64	-7%	0.8	-0.1	12	-1	-0.1

High-throughput results deposited in PubChem by several laboratories.
